BJeLR lethal: kills HRASV12-expressing BJeLR cells; inhibition, % (concentration not given with the values); AID 1554; BJeLR (HRASV12) viability, CellTiter-Glo ATP luminescence, 48 h; reference of the scale not given here; hit rate 0.17% among 300,000;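 active = replicate mean above 50%; inconclusive = above 50% but judged a plate artefact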;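 also: 50 nL library stock added to about 25 µL; numbers are from one replicate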
Bead autofluor: compound fluorescence in toxin protease inhibitor counterscreen | compound autofluorescence counterscreen, microsphere flow cytometry; stronger effect = higher value | fluorescence intensity (concentration not given with the values) | hit rate 3.1% among 360,000 | AID 624483;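 active = at least 3 SD above the mean of all compounds, about 16000 in these data; inconclusive = too few beads counted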;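 also: 100 nL of 1 mM stock went into each well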
ugtP null kill: kills S. aureus RN4220 lacking UgtP; S. aureus RN4220 ugtP deletion, OD600 growth, 16 h; some inactives read as strong as hits; growth inhibition, % (test concentration not listed); hit rate 0.54% among 330,000; AID 1259309;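 active = z-score under -3 and OD600 up to 0.15 on both plates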;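 also: plate controls were untreated wells for no effect and antibiotic for full effect; wells of about 80 µL received 100 nL stock; the first replicate is given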
Mtb hypoxia inh: Mtb hypoxia fluorescent reporter inhibition; M. tuberculosis hypoxia-regulated fluorescent reporter, fluorescence; fluorescence inhibition, % (test concentration not listed); hit rate 0.1% among 300,000; AID 1159583;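 active = 35 to 45% if threefold the growth effect, above 45% if 1.5-fold the growth effect; inactive = the rest, general growth blockers included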;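 also: wells of about 50 µL received 100 nL stock; 0% = vehicle wells and 100% = reference inhibitor wells; whole bacteria with a GFP reporter of the hypoxia response; strong numbers were not always called active; many hits fall short of the cut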
PrP UTR inh: inhibition of PrP 5' UTR reporter expression | inhibition, % (concentration not given with the values) | hit rate 0.35% among 340,000 | cell-based PrP 5' UTR mRNA reporter, plate reader;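 active = every replicate at 50% or more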;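 also: 0 = median of the neutral control wells; tested in H4 reporter cells; numbers are from one replicate; inactives centre near -14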
Sa RN4220 lethal: kills Staphylococcus aureus RN4220; S. aureus RN4220 growth, OD600, 16 h; inhibition, % (concentration not given with the values); hit rate 0.33% among 330,000; AID 1259311;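 active = z-score of -3 or lower and OD600 up to 0.18 on both plates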;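 also: plate controls were untreated cells for no effect and reference antibiotic for full effect; stock transfer was 100 nL into about 80 µL; one replicate is shown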
Mtb hypoxia inh growth: recorded beside Mtb hypoxia inh, whose call it bears; growth inhibition, %; measured here: M. tuberculosis growth (absorbance);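 0% = vehicle and 100% = reference antibiotic; read after six days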
Starred values were filed as active, the others as inactive; ? = inconclusive; . = no result given.

mol	BJeLR lethal	Bead autofluor	ugtP null kill	Mtb hypoxia inh	Mtb hypoxia inh growth	PrP UTR inh	Sa RN4220 lethal
O=C(Nc1ncccc1O)c1cccc(S(=O)(=O)NCc2ccccc2)c1	2	.	1	5	11	-14	6.6
CC(=O)Nc1ccc(-c2ccc(NC(C)=O)cc2)cc1	4	1977	2	15	2	-36	5.2
COc1cccc(C(=S)N2CCOCC2)c1OS(=O)(=O)c1ccc(Cl)cc1	-6	5957	0	-4	8	5	1.6
Cc1ncc([N+](=O)[O-])n1CC(=O)NC1CCCCCC1	-6	3330	10	2	5	-11	8.3
CC(C)C(=O)NC(c1ccc([N+](=O)[O-])cc1)c1c(O)ccc2ccccc12 (stereo not given)	-1	9654	-3	-10	1	.	-3.0
COc1ccccc1CNC(=O)CSc1nc(-c2ccccc2)cn1N	-7	3172	0	15	-1	-1	3.9
COc1ccccc1-c1noc(-c2cc(OC)c(OC)c(OC)c2)n1	-4	4330	-2	9	5	-19	3.5
O=C(c1nnsc1S(=O)(=O)c1ccc(Cl)cc1)N1CCOCC1	-2	4675	19	23	20	6	10
S=C(c1ccc(Br)cc1)N1CCCC1	8	4390	9	7	7	-6	4.8
Cc1ccccc1CSCC(=O)Nc1ccccc1-c1ccccc1	7	2598	-6	19	6	3	10

mol	BJeLR lethal	Bead autofluor	ugtP null kill	Mtb hypoxia inh	Mtb hypoxia inh growth	PrP UTR inh	Sa RN4220 lethal
Cn1c(-c2ccc(F)c(F)c2)cc2onc(-c3ccccc3)c2c1=O	.	3923	5	3	0	-59	7.5
COc1ccc(Cl)cc1S(=O)(=O)N(C)CC(=O)N1CCOCC1	0	4458	4	0	-10	-15	4.1
CCn1c(-c2cc(Br)cc(OC)c2O)nc2cc(S(=O)(=O)N(C)C)ccc21	-7	9418	-1	4	8	-43	4.1
Cc1sc2nc(SCC(=O)Nc3ccccc3F)[nH]c(=O)c2c1C	0	6458	1	-2	-3	-22	12
CN1CCN(CC(=O)Nc2nc(-c3c[nH]c4ccccc34)cs2)CC1	-5	4645	7	-8	13	-9	-3.1
CC(=O)c1cccc(NC(=O)NCc2ccco2)c1	-4	10167	7	2	2	-33	4.1
Cc1ccc(N=Nc2c(N)nn3c(N)c(C#N)c(C)nc23)cc1	5	4066	-3	6	7	-10	-1.8
O=C(OCc1nnc(-c2ccccc2)o1)c1ccc(Br)o1	-1	4557	5	8	0	-1	1.1
COc1cccc(Cn2c(=O)ccc3ccccc32)c1	11	2649	7	18	4	-15	6.2
Cn1ncc([N+](=O)[O-])c1C(=O)Nc1cccc(Cl)c1	7	3401	17	18	7	-12	10.0

mol	BJeLR lethal	Bead autofluor	ugtP null kill	Mtb hypoxia inh	Mtb hypoxia inh growth	PrP UTR inh	Sa RN4220 lethal
CCOCCCNC(=O)c1ccc2c(=O)n(Cc3ccc4c(c3)OCO4)c(=S)[nH]c2c1	-3	3823	-69	6	8	-11	21
CC1=C(C#N)C(=O)NC(=O)/C1=C\c1ccc(-c2ccc(C)cc2[N+](=O)[O-])o1	-1	4295	3	0	3	-30	5.9
Cc1nn(-c2ccccc2)c(C)c1NC(=O)c1cccs1	1	3966	3	15	19	-3	2.4
Cc1cc(Nc2ccc(F)c(F)c2)nc(-c2ccccc2O)n1	-16	3936	-11	1	-5	-10	-5.7
FC(F)(F)c1nnc2n1N=C(c1ccccc1)CS2	4	3788	-1	1	-2	-9	0.5
Cc1ccc(NC(=O)C2=COCCO2)cc1S(=O)(=O)N1CCOCC1	.	3504	5	3	-6	-18	2.6
CCOc1ccccc1NC(=O)COc1cccnc1[N+](=O)[O-]	.	3628	8	7	12	-10	4.3
S=C(Nc1ccc(Oc2ccccc2)cc1)NC1CCCCC1	4	3138	-24	-4	8	-22	-7.2
CC1=C(C(=O)N2CCOCC2)C(c2ccc(Cl)cc2)NC(=S)N1 (stereo not given)	.	2216	12	7	13	-14	0.9
CCCCC1=CC2=C(c3ccco3)C(=O)C(C)(OC(=O)c3ccc(OC)cc3)C(=O)C2=CN1c1ccccc1 (stereo not given)	11	2823	.	.	.	-2	.

Compound profiles (already shown). Screens in order: BJeLR lethal | Bead autofluor | ugtP null kill | Mtb hypoxia inh | Mtb hypoxia inh growth | PrP UTR inh | Sa RN4220 lethal
Cc1ccc(NC(=O)C2=COCCO2)cc1S(=O)(=O)N1CCOCC1 as listed: . | 3504 | 5 | 3 | -6 | -18 | 2.6
CC(C)C(=O)NC(c1ccc([N+](=O)[O-])cc1)c1c(O)ccc2ccccc12 (stereo not given) as listed: -1 | 9654 | -3 | -10 | 1 | . | -3.0
COc1ccccc1CNC(=O)CSc1nc(-c2ccccc2)cn1N as listed: -7 | 3172 | 0 | 15 | -1 | -1 | 3.9

More results:
mol	BJeLR lethal	Bead autofluor	ugtP null kill	Mtb hypoxia inh	Mtb hypoxia inh growth	PrP UTR inh	Sa RN4220 lethal
COCCCn1c(C)nnc1SCC(=O)NCc1ccco1	-7	6413	1	-12	-9	-27	4.2
COc1ccc(C(=O)NCCCOC(C)C)cc1OC1CCN(C(C)=O)CC1	-2	.	4	5	-2	-22	5.9
CCN(CC)c1ccc(NC(=O)CN2C(=O)NC3(CCc4ccccc43)C2=O)cc1 (stereo not given)	.	8576	4	11	5	-13	7.0
Cc1ccc(NC(=O)NC2CCCCC2)cc1S(=O)(=O)N1CCOCC1	6	3367	7	12	2	9	4.3
O=C(COC(=O)c1cccnc1Cl)Nc1cc(S(=O)(=O)N2CCOCC2)ccc1Cl	.	8922	8	7	2	-27	1.6
O=c1[nH]c(C2CCCN(S(=O)(=O)c3ccccc3)C2)nc2c1nnn2Cc1ccccc1Br (stereo not given)	-5	4529	-12	-4	-7	-6	-1.9
Cc1nc(SCC(=O)c2ccccc2)n[nH]1	5	9125	0	11	7	-35	7.6
Cc1cccc(/C=C2\CS/C(=C\c3cccc(C)c3)C2=O)c1	-1	6485	4	7	7	-7	4.9
O=C(N/N=C\c1cn(-c2ccccc2)nc1-c1ccccc1)c1ccc2c(c1)OCO2	-9	4652	.	.	.	-26	.
Cc1cccc(NCc2ccc(O)c3ncccc23)c1C	-1	4536	-2	0	11	-17	1.4

mol	BJeLR lethal	Bead autofluor	ugtP null kill	Mtb hypoxia inh	Mtb hypoxia inh growth	PrP UTR inh	Sa RN4220 lethal
Cc1n[nH]c(C)c1CCc1nc2c3ccccc3nc(SCC(N)=O)n2n1	.	3934	4	14	9	0	3.2
Cn1c(=O)c2c(nc(N3CCN(c4ccccn4)CC3)n2Cc2ccc(Cl)cc2Cl)n(C)c1=O	-10	2242	2	.	.	-8	2.0
CC(=O)N(C1=C(Cl)C(=O)c2ccccc2C1=O)c1ccc(C(=O)O)cc1	-4	3496	.	.	.	-4	.
COC(=O)c1ccc(CSc2ccc(S(=O)(=O)N3CCCCC3)cn2)cc1	.	3874	6	-5	1	-10	2.0
Cc1ccc(C2CC(c3ccccc3OC(F)F)Nc3ncnn32)cc1 (stereo not given)	-3	2502	-11	7	8	-7	2.4
CCC(Oc1ccccc1)C(=O)N(Cc1ccccc1)c1ccccn1 (stereo not given)	-4	2175	0	15	6	11	3.2
CC(=O)N1CCc2cc(NC(=O)c3ccc(C)cc3)ccc21	.	21491*	-2	-8	5	-44	8.3
Cc1nc(CC(=O)O)c(-c2ccccc2)s1	-2	8208	-2	7	9	-16	6.9
Cc1cc(C(=O)N/N=C/c2cccs2)no1	-8	9464	.	.	.	-4	.
CCCCN1C(=O)N(C)C2NC(=S)NC21 (stereo not given)	1	.	2	5	20	-9	1.8

mol	BJeLR lethal	Bead autofluor	ugtP null kill	Mtb hypoxia inh	Mtb hypoxia inh growth	PrP UTR inh	Sa RN4220 lethal
CCOC(=O)C1=C(C)Nc2nc3ccccc3n2C1c1ccccc1 (stereo not given)	9	?	3	-1	6	-13	-4.3
CCC(Oc1ccccc1)C(=O)NCCOC (stereo not given)	-2	2675	6	11	11	-15	4.2
COc1cc(-c2nnc(NC(=O)CS(=O)(=O)c3ccc(C)cc3)o2)cc(OC)c1OC	7	5431	4	7	12	-17	6.5
O=C(CSc1nnc(NC(=O)C2CC2)s1)NCc1ccccc1Cl	-1	5623	3	1	0	-22	-1.7
CN1CCC(N(C)S(=O)(=O)c2ccc(NC(=O)COc3cccc(C(F)(F)F)c3)cc2)CC1	-9	5940	-6	-15	-4	-20	-3.7
Cc1ccc(CNC(=O)C2CC(c3ccc(C(F)(F)F)cc3)=NO2)o1 (stereo not given)	16	3394	2	23	18	-18	5.4
c1ccc(-c2cn(CC3CCCCC3)nn2)cc1	4	3755	.	.	.	-84	.
COc1ccc(-c2nc(CN3CCN(Cc4cccc(Cl)c4)CC3)c(C)o2)cc1	2	4628	6	11	5	-12	3.1
COC(=O)C1=C(C)NC(=O)CC1c1ccc(C(=O)OC)cc1 (stereo not given)	-1	2913	3	.	.	-9	1.5
Cc1ccc(-c2ccc(/C=N/NC(=O)CN3CCOCC3)o2)cc1[N+](=O)[O-]	-2	4034	.	.	.	40	.

mol	BJeLR lethal	Bead autofluor	ugtP null kill	Mtb hypoxia inh	Mtb hypoxia inh growth	PrP UTR inh	Sa RN4220 lethal
O=C(CNc1ccc(Br)cc1)Nc1cccc(S(=O)(=O)N2CCCC2)c1	.	?	-10	9	2	-7	0.2
O=C(O)c1cn(-c2ccc(F)c(F)c2)c2c(F)c(F)c(F)c(F)c2c1=O	3	8081	-2	1	4	-43	5.1
CC(C)Cn1c(N)c(C(=O)COC(=O)c2ccc(F)cc2)c(=O)n(C)c1=O	-7	4164	3	0	10	-34	0.5
CNC(=O)CSc1nc2ccccc2c(=O)n1-c1cc(OC)ccc1OC	-8	4361	-1	12	0	-4	0.4
COc1cc(OC)c(OC)cc1/C=N/NC(=O)c1ccc(=O)n(C)c1	-4	2601	.	.	.	-10	.
COc1cccc(-c2nc(-c3ccc(Br)o3)no2)c1	-12	4954	11	-4	-5	-97	-1.6
Cc1ccc(S(=O)(=O)N(C)CCCC(=O)Nc2ccncc2)cc1	4	5652	-7	0	-3	-21	5.6
O=C(c1cc(COc2c(F)cccc2F)on1)N1CCN(C2CCCCC2)C(=O)C1	-4	6212	5	7	-1	-10	-0.2
Cc1c2cnn(CC(=O)NCCCN3CCCCC3C)c(=O)c2c(C)n1Cc1ccccc1 (stereo not given)	15	18388*	-7	8	13	-34	-11
CN(CC(=O)NCc1cccs1)CC(=O)Nc1ccc(F)c(F)c1F	-2	5095	12	16	6	-14	2.4

mol	BJeLR lethal	Bead autofluor	ugtP null kill	Mtb hypoxia inh	Mtb hypoxia inh growth	PrP UTR inh	Sa RN4220 lethal
CCc1noc(C)c1C(=O)Nc1nc(-c2cccs2)cs1	-5	6076	7	11	10	-55	4.9
O=C(N/N=C/c1cccs1)c1ccc(-n2cccc2)cc1	2	2274	.	.	.	-33	.
O=C1C(=O)c2c(ccc3ccccc23)-c2ccccc21	.	4914	25	8	4	-61	-2.6
O=S1(=O)N=C(N/N=C/c2ccco2)c2ccccc21	-3	2213	.	.	.	-21	.
NS(=O)(=O)c1cccc(NC(=S)NC(=O)c2cccc([N+](=O)[O-])c2)c1	7	3252	2	-5	6	28	3.8
CN(CC(=O)Nc1ccccc1Br)C(=O)CNC(=O)c1cccs1	.	8770	9	6	5	-2	2.1
CCN(CC(=O)Nc1ccc2c(c1)OCCO2)S(=O)(=O)c1ccc(F)cc1	-7	4190	7	2	-2	-15	1.4

Compound activity (PubChem)
